Source: PubChem BioAssay (National Center for Advancing Translational Sciences (NCATS))
nsP2pro inh: CHIKV nsP2 protease inhibition, primary qHTS. Q8JUX6. FRET peptide cleavage, nsP2pro, fluorescence 1 h. Potency, µM (highest dose often 24.9 µM), inactives show at the top dose activity change, negative = inhibition, usual class: inhibitors. hit rate 1.1% among 31,000. AID 1964107; active means well fitted inhibition curve with a large enough effect; inconclusive means small, poorly fitted or top-dose-only effect; inactive means no such curve, though single readings can be large or run the other way; note: nearly all actives have a fitted effect of over 60% in size; a reference inhibitor and vehicle were the controls
Target sequence (Q8JUX6 whole entry, looked up): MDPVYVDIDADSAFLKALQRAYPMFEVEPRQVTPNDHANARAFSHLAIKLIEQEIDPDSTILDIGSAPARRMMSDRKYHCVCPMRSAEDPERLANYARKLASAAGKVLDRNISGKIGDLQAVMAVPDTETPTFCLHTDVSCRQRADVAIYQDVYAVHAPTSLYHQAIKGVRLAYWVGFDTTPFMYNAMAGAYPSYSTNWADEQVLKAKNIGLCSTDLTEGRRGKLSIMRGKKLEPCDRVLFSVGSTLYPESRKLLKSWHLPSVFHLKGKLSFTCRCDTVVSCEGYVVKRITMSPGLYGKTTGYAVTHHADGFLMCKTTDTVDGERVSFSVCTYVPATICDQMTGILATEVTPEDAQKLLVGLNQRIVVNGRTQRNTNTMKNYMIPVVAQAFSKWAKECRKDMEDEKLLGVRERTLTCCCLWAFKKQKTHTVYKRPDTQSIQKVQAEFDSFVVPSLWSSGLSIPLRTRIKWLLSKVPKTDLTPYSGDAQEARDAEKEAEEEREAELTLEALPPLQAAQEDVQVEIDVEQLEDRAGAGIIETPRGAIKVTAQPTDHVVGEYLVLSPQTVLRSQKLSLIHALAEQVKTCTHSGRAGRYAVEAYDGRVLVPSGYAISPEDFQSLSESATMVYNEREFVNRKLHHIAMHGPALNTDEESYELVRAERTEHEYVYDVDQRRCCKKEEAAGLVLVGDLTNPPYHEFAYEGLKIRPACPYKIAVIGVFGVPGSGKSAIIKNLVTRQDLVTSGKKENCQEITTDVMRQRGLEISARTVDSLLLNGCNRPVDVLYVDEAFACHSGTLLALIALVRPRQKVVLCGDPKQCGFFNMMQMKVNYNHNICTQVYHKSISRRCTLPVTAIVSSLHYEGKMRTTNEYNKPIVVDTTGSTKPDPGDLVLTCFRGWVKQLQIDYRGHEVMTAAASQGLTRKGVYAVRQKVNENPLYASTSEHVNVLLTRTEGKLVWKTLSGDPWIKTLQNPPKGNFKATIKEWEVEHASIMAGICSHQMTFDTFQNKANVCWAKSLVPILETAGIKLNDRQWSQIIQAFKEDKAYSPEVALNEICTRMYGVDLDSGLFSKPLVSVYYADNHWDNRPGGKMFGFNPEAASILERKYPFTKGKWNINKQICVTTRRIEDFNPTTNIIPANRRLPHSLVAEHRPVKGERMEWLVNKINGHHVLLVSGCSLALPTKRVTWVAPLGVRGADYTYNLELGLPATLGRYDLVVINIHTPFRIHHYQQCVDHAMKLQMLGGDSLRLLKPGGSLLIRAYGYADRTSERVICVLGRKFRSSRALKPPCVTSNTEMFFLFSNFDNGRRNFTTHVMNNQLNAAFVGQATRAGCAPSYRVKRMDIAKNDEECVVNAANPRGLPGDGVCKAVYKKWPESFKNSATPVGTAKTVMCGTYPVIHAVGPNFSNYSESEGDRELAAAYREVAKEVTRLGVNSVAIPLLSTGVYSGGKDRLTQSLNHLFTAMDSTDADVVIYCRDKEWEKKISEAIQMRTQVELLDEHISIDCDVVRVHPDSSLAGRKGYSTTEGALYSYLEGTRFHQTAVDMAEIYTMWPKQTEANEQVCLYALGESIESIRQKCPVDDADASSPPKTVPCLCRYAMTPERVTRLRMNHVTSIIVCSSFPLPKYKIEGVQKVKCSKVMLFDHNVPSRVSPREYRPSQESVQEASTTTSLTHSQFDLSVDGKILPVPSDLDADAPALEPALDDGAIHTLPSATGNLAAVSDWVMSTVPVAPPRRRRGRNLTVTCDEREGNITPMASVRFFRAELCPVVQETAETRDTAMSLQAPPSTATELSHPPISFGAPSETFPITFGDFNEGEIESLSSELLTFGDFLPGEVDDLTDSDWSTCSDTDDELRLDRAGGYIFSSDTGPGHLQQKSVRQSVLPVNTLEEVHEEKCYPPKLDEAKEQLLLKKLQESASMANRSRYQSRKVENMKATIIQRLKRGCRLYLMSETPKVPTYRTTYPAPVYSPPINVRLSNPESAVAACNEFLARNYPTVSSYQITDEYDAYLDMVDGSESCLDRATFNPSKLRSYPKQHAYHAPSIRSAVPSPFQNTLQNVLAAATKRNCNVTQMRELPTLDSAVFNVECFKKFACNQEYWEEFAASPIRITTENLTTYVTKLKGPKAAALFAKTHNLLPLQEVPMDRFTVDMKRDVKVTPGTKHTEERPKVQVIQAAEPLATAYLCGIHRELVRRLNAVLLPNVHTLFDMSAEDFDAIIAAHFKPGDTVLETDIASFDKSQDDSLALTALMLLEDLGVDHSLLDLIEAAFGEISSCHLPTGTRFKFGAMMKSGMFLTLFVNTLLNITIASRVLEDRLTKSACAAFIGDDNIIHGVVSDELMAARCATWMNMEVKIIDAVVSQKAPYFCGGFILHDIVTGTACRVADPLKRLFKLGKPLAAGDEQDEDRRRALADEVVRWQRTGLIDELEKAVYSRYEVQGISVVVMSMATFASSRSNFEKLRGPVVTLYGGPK
An asterisk follows results filed as active; i = inactive; ? = inconclusive; & = joins results of further samples; [ ] = remark or other dose. % is set by controls: 0 for no effect and ±100 for the full control effect; potency is the fitted concentration of half-maximal effect. These rows are one share of the data, so the mix of outcomes need not match the whole.

compound | nsP2pro inh
COCC(=O)Nc1c(I)c(C(=O)NCC(O)CO)c(I)c(C(=O)N(C)CC(O)CO)c1I (stereo not drawn) | -1.7%
NC(=O)CCN1CCc2onc(-c3ccccc3F)c2C1 | -15.4%
COC(=O)C[C@H]1[C@]2(C)C3=C(C)[C@H](c4ccoc4)C[C@H]3O[C@@H]2[C@H](OC(C)=O)C2[C@](C)(C(=O)OC)C=CC(=O)[C@@]21C (stereo partly drawn) | ?
O=C(CSc1nc2ccsc2c(=O)n1-c1ccc(Br)cc1)NCc1ccccc1 | -20.5%
Cc1cccc(Cc2c(C)nc3nc(SCc4ccccc4C)nn3c2C)c1 | -25.9%
CN(C)c1ccc(-c2nnc([C@H]3CCN(Cc4ccccn4)C3)o2)cc1 | i
O=S(=O)(NCCCNS(=O)(=O)c1c(F)cccc1F)c1ccc2c(c1)OCCO2 | 1.7%
CCCS(=O)(=O)Nc1ccc(=O)n2c1[C@@H]1C[C@@H](CN(C(=O)c3ccc(F)cc3)C1)C2 | -1.4%[39.2 µM]
Cc1ccc(C)c(CN2C(=O)c3ccccc3S(=O)(=O)c3ccc(C(=O)N4CCN(Cc5ccccc5)CC4)cc32)c1 | -18.2%
Cc1ccc(S(=O)(=O)CCC(=O)Nc2ccc(Br)cc2C)cc1 | ?
O=C(/C=C/c1ccc([N+](=O)[O-])o1)Nc1cccc([S+](=O)([O-])Nc2ccccc2F)c1 | -3.5%&-6.8%
O=C(OCC#CCSc1nnc(-c2cccc3ccccc23)o1)c1ccc(SC(F)(F)F)cc1 | -8.0%
COc1ccc(CCNC(=O)CCc2c(C)nc3cc(-c4cccc(F)c4)nn3c2C)cc1OC | -4.0%
O=S(=O)(c1ccccc1)n1nc(-c2ccccc2)nc1NCc1ccc(Cl)cc1 | -10.3%
c1ccc(CN2CCC[C@H]2c2nc(-c3ccc(N4CCOCC4)nc3)no2)cc1 | i
CCC(C)NC(=O)Cn1cnc2sc(C)c(S(=O)(=O)N3CCN(c4ccccc4OC)CC3)c2c1=O (stereo not drawn) | -20.4%
Cc1ccc(S(=O)(=O)N2CCc3nc4cc[nH]n4c(=O)c3C2)cc1C | i
COC1CC(OC2CCC3(C)C(=CCC4C3CCC3(C)C(C(C)OC5OC(COC6OC(CO)C(O)C(O)C6O)C(O)C(O)C5O)CCC43O)C2)OC(C)C1OC1OC(C)C(O)C(OC)C1O (stereo not drawn) | 16.8%[5.1 µM]
CCN(Cc1ccccc1)C(=O)CCS(=O)(=O)c1ccc2c(c1)CCN2C(C)=O | -14.6%
O=[S+]([O-])(c1cccc(C(F)(F)F)c1)N1CCCC2(CC(c3ccccn3)=NO2)C1 (stereo not drawn) | -7.9%
CCCCOC(=O)c1c(C)oc2c1cc(NS(=O)(=O)c1cc(OC)ccc1OC)c1ccccc12 | -7.8%
CCC(C(=O)NCc1ccc2c(c1)CCN2C(=O)c1ccc(F)cc1)c1ccccc1 (stereo not drawn) | -10.7%
CC1=C(C)C(=O)OC(C(C)C2C(O)CC3C4C5OC5C5(O)CC(OC6OC(CO)C(O)C(O)C6O)CC(O)C5(C)C4CCC32C)C1 (stereo not drawn) | ?
CON(C)Cc1ccc(O)c2c1C[C@H]1C[C@H]3[C@H](N(C)C)C(=O)C(C(N)=O)=C(O)[C@@]3(O)C(=O)C1=C2O | 1.7%
CC(C)(O)/C=C/C(=O)[C@](C)(O)[C@H]1[C@H](O)C[C@@]2(C)[C@@H]3CC=C4[C@@H](C[C@H](O)C(=O)C4(C)C)[C@]3(C)C(=O)C[C@]12C | -1.6%[10 µM]
CNC(=O)[C@@H]1C[C@@H](n2cc(CNC(=O)Cc3ccc(F)cc3)nn2)CN1 | 2.6%
Cc1ccc([S+](=O)([O-])N2CC3(Cc4ccccc4N([S+](C)(=O)[O-])C3)C2)cc1 | 4.3%
CC(C)(C)CNc1ncnc2ccc(-c3ccc(C(=O)O)o3)cc12 | i
CCc1ccc(NC(=O)CN2CCCN(Cc3cccc(Cl)c3)S2(=O)=O)cc1 | -15.3%
CN(C/C=C/c1ccccc1)Cc1cccc2ccccc12 | 19.9%

Next compounds
compound | nsP2pro inh
Cc1nc2cccnc2n1CC1CCCN(S(=O)(=O)c2ccc3c(c2)OCCO3)C1 (stereo not drawn) | i
Cc1ccc(CN2CCC(CNc3ncnc4onc(-c5ccc(Cl)cc5)c34)CC2)cc1 | 16.8%
O=C1CCCC2=C1C(c1[nH]ncc1Cl)N=C(Nc1nc3ccc(F)cc3o1)N2 (stereo not drawn) | i
O=C1N(C2CCCCC2)C[C@H]2CN(S(=O)(=O)c3ccccc3)CCN12 | 3.6%[39.2 µM]
Cc1cc(C)c2c(=O)cc(C(=O)Nc3sc4c(c3C(=O)NCc3ccccc3)CCCC4)oc2c1 | -23.9%
CC(C)c1cc2c(cc1S(=O)(=O)O)[C@@]1(C)CCC[C@@](C)(C(=O)O)[C@@H]1CC2 | ?
C=CCN(C)C(=O)[C@@H](C)C1CC[C@@]2(C)Cc3sc(CSc4ccccc4)nc3[C@@H](C)[C@@H]2[C@H]1O (stereo partly drawn) | ?
C=C(CC)C(=O)c1ccc(OCC(=O)O)c(Cl)c1Cl | -9.7%
CC(C)(C)OC(=O)N1CCN(c2ccc(NCc3cc(-c4ccc(C#N)cc4)co3)cc2)CC1 | i
CCCCN(C)C(=O)C1CCCN(c2ncnc3onc(-c4ccc(F)cc4)c23)C1 (stereo not drawn) | -12.9%
CCOC(=O)CC(NC(=O)Cn1nnc(-c2ccccc2Cl)n1)c1ccc(OC)cc1 (stereo not drawn) | -13.4%
O=C(CCSCc1cnn(-c2ccccc2)c1-n1cccc1)NCc1ccccc1Cl | 4.0%
Cc1cc(C)c(S(=O)(=O)N(CCc2cccc(Br)c2)Cc2ccc(-c3cccc(S(C)(=O)=O)c3)cc2)c(C)c1 | 6.8%
Cn1cc2c3c(cccc31)CN(C(=O)c1ccccc1F)CC2 | -17.1%
Cc1cccc(N2CCN(S(=O)(=O)c3ccc4[nH]c5c(c4c3)CCCCC5)CC2)c1C | -30.3%
c1cnc(N2CCN(c3ncc4c(n3)CCNC4)CC2)nc1 | -29.5%
CC(C)=CCCC1(C)C2CCC1(C)C(O)C2 (stereo not drawn) | 30.9%
Cc1cc2nc3n(c(=O)c2n1CC(=O)NCCc1ccc(Cl)cc1)CCCC3 | i
O=C(CCCCCCC(=O)Nc1ccccc1)NO | ?
Cc1ccc(OCC(=O)NCC(=O)OCc2cc(=O)n3nc(C)sc3n2)cc1 | -12.3%
O=S(=O)(Nc1ccc(F)c(C(F)(F)F)c1)c1ccc(N2CCCCS2(=O)=O)cc1 | -18.9%
COc1ccc(C#Cc2ccc(C(=O)N3CCC[C@@H](O)C3)c(F)c2)cc1 | 25.7%
CC(C)(C)NC(=O)N1CCCC(c2nc(CCOCC3CC3)no2)C1 (stereo not drawn) | 0.1%
O=C1C(c2[nH]c3ccccc3c2O)=Nc2ccccc21 | 22.2%
COc1cccc(CNc2ccc(S(=O)(=O)Nc3cccc4ccncc34)cc2)c1O | i
O=C(Nc1cc(C(F)(F)F)ccc1N1CCCCC1)c1ccncc1 | 16.7%
CCC1CCCCN1C(=O)c1ccc2c(c1)N(Cc1cccc(Cl)c1)C(=O)c1ccccc1S2(=O)=O (stereo not drawn) | -19.3%
O=c1cc(N2CCOCC2)oc2c(Nc3ccccc3)nccc12 | 3.4%[39.2 µM]
Cc1nn(-c2ccc(F)cc2)c(-n2cccc2)c1C(=O)N1CCCCC1C (stereo not drawn) | -28.7%
O=C(Nc1cccnc1)c1ccc2c(c1)OCCN(c1cccc(OC(F)(F)F)c1)C2 | i

More entries follow:
compound | nsP2pro inh
Cc1[nH]nc(C(F)(F)F)c1Cc1sc2c(c1C(=O)N1C[C@](C)(O)CO1)c(=O)n(C)c(=O)n2C(C)C | 1.9%
CCC[C@@H]1O[C@@H]2C[C@H]3[C@@H]4CCC5=CC(=O)C=C[C@]5(C)[C@H]4[C@@H](O)C[C@]3(C)[C@]2(C(=O)CO)O1 | 0.4%
O=C(NC1CCCCCC1)c1ccc2c(c1)sc1nc(-c3ccccc3)cn12 | -10.6%
O=c1c(-c2cccc(C(F)(F)F)c2)ccc2n1C[C@H]1C[C@@H]2CN(S(=O)(=O)c2cccs2)C1 | -22.1%
C=C[C@H]1CN2CC[C@H]1C[C@@H]2[C@@H](O)c1ccnc2ccccc12 | 21.1%
C=CCNC(=O)C(NC(=O)c1cccs1)C1CCN(C(=O)c2ccc(F)cc2)CC1 (stereo not drawn) | i
CC(=O)c1ccc(N2CCN(S(=O)(=O)c3ccc(N4CCCC4=O)cc3)CC2)cc1 | 0.3%
CCOC(=O)c1c(S(=O)(=O)N2CCCC(C(=O)N3CCN(c4ccc(F)cc4)CC3)C2)c(C)n(C)c1C (stereo not drawn) | -12.7%
CN[C@@H](C)[C@H]1[C@H](O)C[C@@]2(C)[C@@H]3CC[C@H]4C(C)(C)[C@@H](NC)CC[C@@]45C[C@@]35CC[C@]12C | -11.0%[5.1 µM]
CN(CC1CCOCC1)S(=O)(=O)c1ccc(Cl)cc1 | -2.2%
CC(=O)N(C1CC1)C1CCOC2(CCNCC2)C1 (stereo not drawn) | 4.9%
NC(=O)[C@@H]1CSSCCC(=O)N[C@@H](CCCCN=C(N)N)C(=O)NCC(=O)N[C@@H](CC(=O)O)C(=O)N[C@@H](Cc2c[nH]c3ccccc23)C(=O)N2CCC[C@H]2C(=O)N1 | 0.6%
Cc1cccc(C#Cc2cc(F)cc(C#N)c2)n1 | -9.0%
Cc1c(C(=O)N(Cc2ccc(Cl)cc2)CC2CCCO2)oc2ccc(F)cc12 (stereo not drawn) | -14.9%
COc1cc(CC2(CCC(=O)N3CCC(Oc4cccc(F)c4)CC3)CCC(=O)N2)ccc1F (stereo not drawn) | 1.4%
Cc1ccc(Nc2c(-c3ccc(C)o3)nc3cccc(C)n23)cc1 | 13.6%
COc1ccc(N2CCN(C(=O)c3ccc4c(=O)n(CCc5ccc(OC)c(OC)c5)c(=O)[nH]c4c3)CC2)cc1 | -16.3%
COC(=O)c1ccc(Cl)cc1NC(=O)NC(C)c1c(-n2cccc2)sc(C)c1C (stereo not drawn) | 24.7%
O=c1[nH]nc2c3c(cccc13)NC(CN1Cc3ccccc3C1)=N2 | 45.8%[activator]
Cc1ncccc1C(=O)N1C[C@H]2OC(=O)N(CCc3cccc(Cl)c3)[C@H]2C1 | -22.9%
CCCc1nnc(NC(=O)c2nc(SCC)ncc2Cl)s1 | -25.1%
CC1(COc2ccc3c(c2)ncn3-c2ccc3cccc(N4CCC(N)CC4)c3n2)COC1 | 61.6%[activator]
O=C(O)c1ccc(-c2noc(-c3cccc(F)c3)n2)cc1 | -1.2%
CC(=O)c1cccc(N2C(=O)CN(S(C)(=O)=O)CC2(C)C(=O)NC2CCCC2)c1 (stereo not drawn) | -19.7%
CSc1cccc(Nc2cc(C(=O)NCCCN(C)c3ccccc3)c3ccccc3n2)c1 | 8.8%
Cc1cc2c(s1)c1cnn(Cc3ccc(C(=O)O)cc3)c(=O)c1n2C | -0.5%
COc1ccc(NC2CCCN(C(=O)c3cn(CCCN)nn3)C2)cc1 (stereo not drawn) | -8.0%
CN(C)C[C@@H]1CN(Cc2ccncc2)C[C@H]1NC(=O)Cc1ccsc1 | -7.9%
Cc1cc(C)c(NC(=O)Cn2c(=O)n(Cc3ccccc3)c(=O)c3c(C)c(C(=O)N(C)C)sc32)c(C)c1 | -18.2%
Cc1cc(-n2c(=O)[nH]c(=O)n(C)c2=O)ccc1Oc1ccc(SC(F)(F)F)cc1 | -15.5%&-7.8%

Compounds shown so far that contain an aryl thioether with sulfur outside any ring:
compound | nsP2pro inh
O=C(CSc1nc2ccsc2c(=O)n1-c1ccc(Br)cc1)NCc1ccccc1 | -20.5%
Cc1cccc(Cc2c(C)nc3nc(SCc4ccccc4C)nn3c2C)c1 | -25.9%
O=C(OCC#CCSc1nnc(-c2cccc3ccccc23)o1)c1ccc(SC(F)(F)F)cc1 | -8.0%
C=CCN(C)C(=O)[C@@H](C)C1CC[C@@]2(C)Cc3sc(CSc4ccccc4)nc3[C@@H](C)[C@@H]2[C@H]1O (stereo partly drawn) | ?
CCCc1nnc(NC(=O)c2nc(SCC)ncc2Cl)s1 | -25.1%
CSc1cccc(Nc2cc(C(=O)NCCCN(C)c3ccccc3)c3ccccc3n2)c1 | 8.8%
Cc1cc(-n2c(=O)[nH]c(=O)n(C)c2=O)ccc1Oc1ccc(SC(F)(F)F)cc1 | -15.5%&-7.8%

(listing goes on)
compound | nsP2pro inh
CCCCn1nc(NC(=O)c2cccc(Cl)c2)c2cc3cccc(C)c3nc21 | -21.4%
Cc1ccnc(NC(=S)N2CCN(c3ccc(Br)cc3)CC2)c1 | -7.1%
Cc1nn(-c2ccccc2)c(-n2cccc2)c1C(=O)NCCCN1CCN(c2ccccc2F)CC1 | -18.9%
CC(C)=CCC/C(C)=C/CC/C(C)=C/CCC(=O)OC/C=C(\C)CCC=C(C)C | 20.6%
C=C1CCC2C(C)(C(=O)O)CCCC2(C)C1CC/C(C)=C\CO (stereo not drawn) | ?
Cc1cc2c(s1)c1cnn(Cc3ccc(C(F)(F)F)cc3)c(=O)c1n2C | -6.0%
CCOC(=O)CCCN1C(=O)CCn2nc(-c3cn(C)c4ccccc34)cc21 | -8.2%
COc1ccc(N2Cc3cccc(C(=O)Nc4ccc(C(C)C)cc4)c3C2=O)cc1 | -15.6%
Cc1ccc(NS(=O)(=O)c2ccc3c(c2)N(C)CCO3)cc1C | -2.4%
COc1ncccc1C(=O)N1CCc2onc(-c3cccc4ccccc34)c2C1 | i
COc1ccc(NC(=O)c2ccc(C(=N)N(C)C)cc2)c(C(=O)Nc2ccc(Cl)cn2)c1 | -1.5%&33.1%
